# miR-21 FLuc – qHTS Assay for Modulators of miRNAs and/orActivators of miR-21; Potency, µM (doses to about 38.3 µM), for the others: top-dose reporter change, positive = more light; HeLa miR-21 FLuc reporter, luciferase, 48 h; 340,000 tested, under 10 active; active = well fitted rising curve with a large enough effect; inconclusive = small, poorly fitted or top-dose-only effect; inactive = no such curve, though single readings can be large or run the other way;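 further: % of control where 0% means no effect; miR-21 action dims this reporter so a rising signal means less miR-21 action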
#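 HeLa cells stably expressing CMV-driven firefly luciferase with a downstream miR-21 binding sequence, endogenously expressing miR-21, were treated with titrations (up to about 40uM final) for 48 hours at 37 degree Celsius. Luciferase luminescence was read after lysis.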
# Rango complex inh – qHTS Assay for Inhibitors of Rango (Ran-regulated importin-beta cargo) - Importin beta complex formation; Potency, µM (series often up to 92.2 µM), without a hit: at the highest dose inhibition of complex formation; Rango CFP/YFP FRET sensor + importin beta, 45 min; 0.031% of 340,000 active; Importin subunit beta-1 (Homo sapiens), Q14974; active = rising FRET ratio curve, often small or poorly fitted; inconclusive = mostly compound fluorescence or quenching in the first reads; inactive = flat curves in all reads;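 further: potency means the concentration at half of the fitted maximal effect; 0% = DMSO wells and 100% = buffer wells lacking importin beta; nearly all actives have a fitted effect of over 15% in size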
# Target sequence (Q14974 whole entry, looked up): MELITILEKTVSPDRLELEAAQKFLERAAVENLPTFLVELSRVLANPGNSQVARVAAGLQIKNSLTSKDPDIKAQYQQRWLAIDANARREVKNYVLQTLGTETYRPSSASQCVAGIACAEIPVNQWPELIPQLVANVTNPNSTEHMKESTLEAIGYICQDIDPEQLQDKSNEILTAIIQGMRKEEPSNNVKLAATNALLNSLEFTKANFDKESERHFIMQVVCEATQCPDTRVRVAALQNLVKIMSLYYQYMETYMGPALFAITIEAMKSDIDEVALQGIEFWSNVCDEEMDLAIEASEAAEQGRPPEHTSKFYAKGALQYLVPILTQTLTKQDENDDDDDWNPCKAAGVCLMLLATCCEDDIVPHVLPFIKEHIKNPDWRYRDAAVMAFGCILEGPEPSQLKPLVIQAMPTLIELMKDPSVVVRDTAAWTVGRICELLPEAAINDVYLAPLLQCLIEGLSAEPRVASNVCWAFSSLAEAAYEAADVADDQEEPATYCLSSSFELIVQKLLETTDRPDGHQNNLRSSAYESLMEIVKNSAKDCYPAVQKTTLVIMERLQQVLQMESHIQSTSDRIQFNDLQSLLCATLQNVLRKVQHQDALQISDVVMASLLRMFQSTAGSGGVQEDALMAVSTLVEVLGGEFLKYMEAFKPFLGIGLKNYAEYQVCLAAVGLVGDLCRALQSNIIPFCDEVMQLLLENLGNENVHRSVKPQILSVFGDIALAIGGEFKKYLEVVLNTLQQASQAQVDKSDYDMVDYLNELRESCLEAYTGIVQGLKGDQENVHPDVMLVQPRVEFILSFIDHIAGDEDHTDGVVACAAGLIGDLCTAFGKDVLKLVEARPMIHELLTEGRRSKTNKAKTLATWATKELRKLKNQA
#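 Inhibition scored from the CFP 486 nm/YFP 530 nm FRET ratio 45 min after adding 0.125 microM importin beta to 50 nM Rango biosensor preincubated 5 min with compound (room temperature, PBS with DTT, Tween-20, BSA). No-importin wells as positive control.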
# Rango release inh – qHTS Assay for Inhibitors of RanGTP induced Rango (Ran-regulated importin-beta cargo) - Importin beta complex dissociation; AID 540253, 2011; 0.071% of 340,000 active; Snurportin-1 (Homo sapiens) + GTP-binding nuclear protein Ran (Homo sapiens) + Importin …; Potency, µM (highest dose often 46.1 µM), without a hit: at the highest dose activity change, negative = inhibition; Biochemical FRET Rango-importin beta, RanGTP-induced dissociation; active means falling FRET ratio curve, often poorly fitted, with flat reads before Ran was added; inconclusive means other falling curves, or compound fluorescence or quenching; inactive means flat or rising ratio curve;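 further: potency means the concentration at half of the fitted maximal effect; % of control where 0% means no effect; nearly all actives have a fitted effect of over 45% in size; -100% = wells without RanGTP and RCC1; the record marks most hits as doubtful in a second field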
#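 Two FRET readings bracket the reaction: one 5 min after compound meets Rango–importin beta, another 45 min after RanGTP-RCC1 (0.6 uM Ran, 0.2 uM RCC1, 2 mM GTP) is added. Only the second defines inhibition.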
# GLA inh pH 4.5 – qHTS Assay for Inhibitors of Human alpha-Galactosidase at pH 4.5. 230,000 tested, under 10 active. AID 1467, 2008. purified enzyme, 4-MU-alpha-Gal fluorescence, pH 4.5. activity change, negative = inhibition, % at 105 µM; inconclusive = small, poorly fitted or top-dose-only inhibition, or a rising curve; inactive = flat fitted curve, though single readings scatter; no compound was filed as active;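 further: 0% = full activity with enzyme and -100% = basal without enzyme; dose as in the result columns while the protocol names 77 µM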
# * = called active by the depositor; ? = inconclusive; nt = not tested or not shown; & = joins results of further samples. Not all compounds are listed (hit frequency here may not be typical).
# The opening six entries (preview)
SMILES,miR-21 FLuc,Rango complex inh,Rango release inh,GLA inh pH 4.5
Clc1ccc(-c2nnc(NCc3ccccc3)c3ccccc23)cc1,-5%,1.2%,20%,9
O=C1CCCN1CC(O)CS(=O)(=O)Cc1ccccc1Cl (stereo not drawn),0%,-1.4%,-9%,nt
Cc1ccc(S(=O)(=O)N2CCC(C(=O)OC(C)C(=O)NC(N)=O)CC2)cc1C (stereo not drawn),-2%,-0.7%,-12%,7
CC(=O)c1c(O)cc(=O)n(-c2ccccc2)c1-c1ccc(Cl)cc1,-3%,2.3%,2%,-2
Cc1onc(C(=O)NCc2ccccn2)c1[N+](=O)[O-],-1%,0.6%,2%,-6
COC(=O)CCN(C(=O)c1ccc(N2CCCCC2)c([N+](=O)[O-])c1)c1ccccn1,-23%,-3.8%,8%,5

# Results, repeating the preview:
SMILES,miR-21 FLuc,Rango complex inh,Rango release inh,GLA inh pH 4.5
Clc1ccc(-c2nnc(NCc3ccccc3)c3ccccc23)cc1,-5%,1.2%,20%,9
O=C1CCCN1CC(O)CS(=O)(=O)Cc1ccccc1Cl (stereo not drawn),0%,-1.4%,-9%,nt
Cc1ccc(S(=O)(=O)N2CCC(C(=O)OC(C)C(=O)NC(N)=O)CC2)cc1C (stereo not drawn),-2%,-0.7%,-12%,7
CC(=O)c1c(O)cc(=O)n(-c2ccccc2)c1-c1ccc(Cl)cc1,-3%,2.3%,2%,-2
Cc1onc(C(=O)NCc2ccccn2)c1[N+](=O)[O-],-1%,0.6%,2%,-6
COC(=O)CCN(C(=O)c1ccc(N2CCCCC2)c([N+](=O)[O-])c1)c1ccccn1,-23%,-3.8%,8%,5
CCOc1cc(NS(=O)(=O)c2ccc(Cl)cc2)c(OCC)cc1NC(=O)CC(C)C,-6%,?,?,3
CCOC(=O)N1CCN(S(=O)(=O)c2ccc3c(c2)CC(C)N3C(C)=O)CC1 (stereo not drawn),8%,-2.6%,9%,nt
CC(C)CN(C)C(=O)CCc1nnc(Cc2ccc(-c3ccccc3)cc2)o1,-10%,1.0%,0%,-19
CCn1c(=S)ccc2ccc(OC)cc21,-20%,-0.2%,1%,8
CC(NC(=O)c1cccc(Cn2cc([N+](=O)[O-])cn2)c1)c1ccc(C(C)(C)C)cc1 (stereo not drawn),-10%,1.1%,12%,4
CCc1ccccc1NC(=O)Nc1ccon1,-1%,1.6%,10%,nt
CC(C)=C1C2CCC1C1C(=O)N(c3nc(-c4ccc(F)cc4)c(C)s3)C(=O)C21 (stereo not drawn),2%,2.0%,-4%,4
O=C(Cn1cnc2c(cnn2-c2ccc(Cl)cc2)c1=O)NCCc1ccccc1,-2%,0.4%,-8%,1
Cc1cc(C)c2c(=O)[nH]c(SCC(=O)Nc3cccc(S(=O)(=O)N(C)C)c3)nc2n1,nt,?,-12%,nt
Cc1cc(C(=O)CSc2nnc(-c3cccs3)o2)c(C)n1-c1ccccc1,10%,?,-10%,-5
Cc1cc(C)cc(N2CC34C=CC(O3)C(C(=O)OCC(=O)NCc3ccco3)C4C2=O)c1 (stereo not drawn),0%,2.9%,-26%,-1
Nc1cnn(Cc2ccccc2F)c1,-1%,-0.5%,1%,3
COC(=O)[C@@]12CCCCN1[C@H](c1ccc(-c3cc(C(C)=O)cs3)cc1)[C@H]1C(=O)N(C)C(=O)[C@H]12,nt,-3.3%,-5%,nt
CC(Cc1c[nH]c2ccccc12)NC(N)=O (stereo not drawn),-1%,-3.6%,-2%,-3
O=C(Nn1c(Cc2cccs2)nc2ccccc2c1=O)c1ccc(F)c(F)c1,-5%,0.6%,18%,-5
O=C(N/N=C/c1c(F)cccc1Cl)c1ccc(Cn2cc(Br)cn2)o1,-20%,0.7%,-2%,5
CC1CCCCC1NC(=O)CCCN1C(=O)c2ccccc2C1=O (stereo not drawn),nt,-1.6%,2%,nt
COCc1ccc(-c2c(-c3ccsc3)sc3ccccc23)cc1,nt,-2.8%,-19%,nt
Oc1ccc(C[C@H]2CNCCN2CCC23CC4CC(CC(C4)C2)C3)cc1,nt,-5.4%,2%,nt

# The listing continues:
SMILES,miR-21 FLuc,Rango complex inh,Rango release inh,GLA inh pH 4.5
COc1ccc(OC)c(S(=O)(=O)N2CCC3(CC2)CC(=O)c2ccccc2O3)c1,nt,2.4%,0%,nt
COCCn1c(SCC(=O)Nc2ccccc2F)nc2c([nH]c3ccccc32)c1=O,4%,2.2%,1%,nt
Cc1ccc(S(=O)(=O)N2[C@@H](c3cccc(C)c3)C(C(=O)O)=C[C@H]2C(C)(C)C)cc1,nt,-0.3%,3%,nt
CC(C)C(NS(=O)(=O)c1ccc2c(c1)Cc1cc(S(=O)(=O)NC(C(=O)O)C(C)C)ccc1-2)C(=O)O (stereo not drawn),0%,-1.4%,11%,nt
CCCCOc1ccc(C(C)NC(=O)C2CCCN(S(=O)(=O)CCC)C2)cc1 (stereo not drawn),1%,-1.3%,21%,-1
CC(Oc1cc2oc(=O)c3c(c2cc1Cl)CCCC3)C(=O)NCc1ccncc1 (stereo not drawn),-6%,-0.6%,-15%,nt
CCOC(=O)Cn1cc(C#N)c(=O)[nH]c1=O,-4%,-2.0%,-18%,1
COC(=O)C1=C(C)N(Cc2ccccc2)C(=NCC(C)C)N[C@H]1c1ccccc1,-1%&26%,?,-26%,nt
O=C(NCc1ccccc1)/C(=C\c1ccc([N+](=O)[O-])cc1)NC(=O)c1ccco1,1%,-0.9%,5%,nt
Cc1c(Cl)ccc(S(=O)(=O)NCCN2CCOCC2)c1Cl,-3%,4.6%,17%,nt
Cc1cccc(NC(=O)CN2CCN(C(=O)c3c(C)nn(Cc4ccccc4)c3C)CC2)c1C,nt,0.5%,5%,nt
COc1cc(-c2n[nH]c(=S)n2-c2cc(C(F)(F)F)ccc2Cl)cc(OC)c1OC,-3%,-0.1%,3%,-10
O=C(CN1CCCCCC1)Nc1ccccc1Cl,-4%,-2.5%,-1%,nt
Clc1cccc(-c2nnc(SC/C=C/c3ccccc3)n2Cc2ccco2)c1,15%,-1.3%,0%,-3
OC1CCN(c2ncnc3c2nnn3Cc2c(F)cccc2Cl)CC1,-5%,0.7%,4%,-14
O=C(COC(=O)Cc1ccc(-c2ccccc2)cc1)NCc1ccc(F)cc1,0%,-0.3%,0%,3
N=c1oc2ccc(Cl)cc2cc1C(=O)NC1CCCCCC1,0%,9.0%,1%,nt
CCc1nn(CC(=O)O)c(=O)c2ccccc12,-1%,-2.5%,-3%,1
COc1cccc2cc(C(=O)N3CCN(C45CC6CC(CC(C6)C4)C5)CC3)c(=O)oc12,-9%,?,?,2
CC(Oc1ccc2c(-c3ccccc3)cc(=O)oc2c1)C(=O)NC(Cc1c[nH]c2ccccc12)C(=O)O (stereo not drawn),nt,0.1%,-8%,nt
O=S(=O)(c1ccc(N2CCOCC2)cc1)N1CCOCC1,0%,-1.5%,16%,14
c1ccc(-c2nnc3sc(-c4csc5c4CCCC5)nn23)cc1,-18%,-0.6%,0%,3
N#CC(C#N)=C1CCc2ccccc2N1,-3%,-1.3%,-12%,2
COc1ccccc1C(=O)NC(=O)Nc1nc(-c2ccccc2)cc(C(F)(F)F)n1,-1%,-0.5%,16%,9
CC(=O)c1ccc(N(CC(=O)NC2CCCCC2)C(=O)CNC(=O)c2cccs2)cc1,-1%,4.9%,2%,nt

# The results go on:
SMILES,miR-21 FLuc,Rango complex inh,Rango release inh,GLA inh pH 4.5
CCCc1cc(=O)oc2cc(OCC(=O)NCC(O)c3ccccc3)ccc12 (stereo not drawn),0%,-2.2%,3%,nt
O=C1CC(c2ccccc2)CC(O)=C1C=NCCCO (stereo not drawn),-1%,-4.3%,-14%,2
Cc1ccc(CNS(=O)(=O)c2ccc(Br)s2)cc1,0%,-1.4%,-3%,nt
CCOc1ccc(S(=O)(=O)N2CCC(C(=O)NCc3ccco3)CC2)cc1C,2%,2.6%,0%,nt
COc1ccc(-c2cc3nc(-c4ccccc4)cc(N4CCC(O)CC4)n3n2)cc1,19%,-6.5%,-12%,2
COCCN(C(=O)C1CCCO1)c1c(N)n(CC(C)C)c(=O)[nH]c1=O (stereo not drawn),nt,-1.2%,8%,nt
COc1cc(C2Nc3ccc4ncccc4c3C3=C2C(=O)CCC3)ccc1O (stereo not drawn),-9%,0.5%,-5%,2
O=C(NCCNC(=O)c1cccs1)c1ccco1,-2%,-2.3%,-5%,-7
Cc1cccc(NC(=O)CC2C(=O)NC3CCCCC3N2C(=O)c2ccccc2Cl)c1 (stereo not drawn),7%,0.7%,5%,-8
Cc1ccc(S(=O)(=O)NCC(=O)OCC(=O)N(C)C2CCCCC2)cc1,nt,4.8%,1%,nt
CCCn1c(=O)c2ccccc2n2c(SCC(=O)c3ccccc3)nnc12,-1%,1.0%,2%,-8
Cc1c(NC(=O)CSc2nnc3sc4ccccc4n23)c(=O)n(-c2ccccc2)n1C,-7%,0.4%,2%,-1
Cc1nnsc1C(=O)NC(C)c1ccccc1 (stereo not drawn),-1%,-1.0%,9%,3
O=C(CSc1nncn1-c1ccccc1)NC1CCCC1,-4%,-3.9%,-4%,nt
CCOc1ccccc1N1CCN(S(=O)(=O)CC)CC1,-9%,-4.6%,-4%,5
CC(=O)c1cc(F)c(N2CCCCCC2)cc1C,-7%,?,-17%,-6
Cc1nc(SCC(=O)Nc2c(C)n(C)n(-c3ccccc3)c2=O)[nH]c(=O)c1C,nt,-0.6%,1%,nt
CC1CCCCN1CCNC(=O)C1CCCN(S(=O)(=O)c2cccc3nsnc23)C1 (stereo not drawn),0%,-0.2%,8%,nt
CCc1nc2sc3c(c2c(=S)[nH]1)CC(C)(C)OC3,-12%,1.3%,0%,nt
CS(=O)(=O)c1cccc(C(=O)NC(c2ccccc2)c2ccccc2)c1,-9%,-3.5%,18%,-17
COc1ccccc1C(=O)N/C(=C/c1cccc([N+](=O)[O-])c1)C(=O)Nc1cccc(C(=O)O)c1,1%,0.7%,-10%,-1
O=C1NC(=O)C(c2ccccc2[N+](=O)[O-])=C1Nc1ccc(O)c(Cl)c1,3%,-2.5%,12%,-5&-13
COCCn1c(SCC(=O)N2CCCC2)nnc1C(C)C,-3%,1.9%,4%,-1
NC(=O)N/N=C/c1coc2ccc3ccccc3c2c1=O,-4%,2.8%,-2%,-4
CS(=O)(=O)N1CCN(C(=O)c2cc(-c3cccnc3)nc3ccc(Cl)cc23)CC1,0%,-0.4%,5%,4

# Later entries.
SMILES,miR-21 FLuc,Rango complex inh,Rango release inh,GLA inh pH 4.5
O=[N+]([O-])c1cc(CN2CCCC2)ccc1Sc1ccc(Cl)cc1,0%,0.4%,20%,-2
Cn1c(=O)n(C)c(=O)n(CC(=O)N2CCCCC2)c1=O,-1%,-1.2%,0%,7
O=C(CSc1ncnc2sccc12)N1CCN(C(=O)c2cccs2)CC1,nt,4.5%,0%,nt
O=C1CN(C(=O)N[C@@H](Cc2ccccc2)C(=O)N[C@@H](Cc2ccccc2)C(=O)O)c2ccccc2N1,2%,1.4%,6%,nt
CC(OC(=O)c1cnc2ccccc2n1)c1ccccc1Cl (stereo not drawn),-34%,0.8%,7%,nt
Cc1ccc2cc(C#N)c(N3CCCN(C(=O)C4CCCO4)CC3)nc2c1 (stereo not drawn),-12%,?,?,3
COc1ccc(-n2cnc3cc(NCc4ccccn4)ccc32)cc1,-38%,1.0%,-22%,0
O=C(Nc1ccccc1C(F)(F)F)c1ccc2nccnc2c1,-5%,?,-5%,nt
O=C(CN1CCN(S(=O)(=O)c2cccc(Cl)c2)CC1)NCC1(N2CCOCC2)CCCCC1,nt,-1.4%,14%,nt
COCCCn1c2nc3ccccc3nc2c2c(=O)n(Cc3ccc(Cl)cc3)c(C)nc21,-3%,nt,nt,2
Cc1ccc(Cl)cc1NC(=O)CCNC(=O)N1CC(=O)Nc2ccccc21,3%,-2.8%,0%,nt
COc1cccc(N2CC(C(=O)Nc3nnc(SCC(=O)NCc4ccco4)s3)CC2=O)c1 (stereo not drawn),0%,-3.0%,-13%,nt
O=C(Cn1cnc2c(oc3ccccc32)c1=O)N1CCCC1,-20%,2.5%,-7%,-15
COc1ccc(N2CCN(C(=O)CCc3nnc4ccc(N5CCOCC5)nn34)CC2)cc1,0%,4.0%,-1%,nt
